Bioassay records: PubChem, several laboratories
26S disassembly = inhibitors of ATP-driven 26S proteasome dissociation, primary screen, biochemical, bead-based flow cytometry, GFP-tagged proteasome; inhibition of disassembly, % (no concentration beside the values); AID 751, 2007; anti-FLAG beads, GFP-proteasome disassembly; actives 0.2% (n = 24,000);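 active = above 40%; inconclusive = likely self-fluorescent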;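 also: plate controls were ATP control with full disassembly for no effect and ATP-gamma-S intact proteasomes for full effect; higher percent means more bead fluorescence retained so stronger block of disassembly; stock transfer was 100 nL into about 10 µL; wells with too few beads may also be inconclusive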
VCAM-1 up = enhancers of VCAM-1 display on endothelial cells, cell-based, plate reader, pooled HUVEC, TNFa stimulus (AID 455). actives 0.2% (n = 10,000). HUVEC TNFa-induced VCAM-1 immunofluorescence, plate reader; numbers were filed only for top-ranked candidate wells. augmentation, % at 5 µM;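 active = a compound raising TNF-alpha-driven VCAM-1 surface staining, with its hit status upheld on visual or statistical review; inactive = the rest, including hits rejected on review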;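 also: 0% = TNFa with vehicle and 100% = strongest image-checked hit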
An asterisk follows results filed as active; i = inactive; ? = inconclusive; . = no result given. Only part of the results is shown, so the mix of outcomes need not match the whole.

SMILES	26S disassembly	VCAM-1 up
O=C(O)CCCNS(=O)(=O)c1ccc(NCc2ccccc2)c(C(=O)O)c1	0.4	i
O=C(NCC(c1cccnc1)N1CCN(c2ccccc2)CC1)c1ccco1 (stereo not given)	6.1	.
CCN(C(=O)CSc1nc2cc(C(=O)OC)ccc2c(=O)n1Cc1ccco1)c1cccc(C)c1	1.5	.
O=C(CC1Oc2ccccc2NC1=O)NCCCN1CCOCC1 (stereo not given)	0.3	i
CC(NC(=O)COc1cccc(Br)c1)C(=O)O (stereo not given)	-0.4	.
Cc1ccc(CNC(=O)CCS(=O)(=O)c2cccc3nsnc23)cc1	0.7	.
COc1ccccc1NC(=O)C1=C(C)NC(SCC(=O)c2ccc(C)cc2)=C(C#N)C1c1ccco1 (stereo not given)	2.4	i
COc1ccccc1N1CCN(CC(=O)Nc2cccc(F)c2)CC1	-0.2	.
COCCN(CCOC)c1ncnc2c1cnn2-c1ccccc1	-0.8	i
CCOC(=O)c1oc2ccccc2c1NC(=O)c1ccc2c(c1)OCO2	-1.7	.
CCC(=O)Nc1ccc(NC(=O)c2ccccn2)cn1	1.2	i
CCOC(=O)c1c(C)c(C(=O)NCc2cccnc2)c(C)n1CC	-1.3	.
Cc1ccc(Oc2ccc(-c3nc(N)nc(N)n3)cc2)cc1	-0.1	i
CCC(C)NC(=O)C1CCC(=O)N1Cc1ccc(C)cc1 (stereo not given)	-0.3	.
CCOC(=O)C1=C(C)Nc2nc(SCC)[nH]c(=O)c2C1c1ccncc1 (stereo not given)	-1.0	.
NC(=O)c1cc(-c2ccccc2)nc(N2CCOCC2)n1	2.3	i
CC(=O)NCC(=O)NC1(C(=O)NC2CCCC2)CCCCC1	-0.4	.
O=C(CSc1nnc(Cn2nnc(-c3ccccc3)n2)n1-c1ccccc1)Nc1ccc(F)cc1	0.9	i
CCOC(=O)c1cccc2c1-c1ccccc1/C2=N/O	1.1	.
Cc1ccccc1-n1c(Cn2c(=O)sc3ccccc32)nnc1SCC(N)=O	0.5	i
COc1ccc(-n2c(Cc3cccn3C)nnc2SCC(=O)Nc2ccccc2)cc1	2.1	i
CC(C)OCCCNC(=O)C1CCN(S(=O)(=O)N2CCCCC2)CC1	0.4	.
CCN(C(=O)c1cnc(N2CCN(c3ncccn3)CC2)c2ccccc12)c1cccc(Cl)c1	1.1	.
CCSc1nnc2c(n1)OC1(CCCC1)Nc1ccccc1-2	3.0	.
Cc1noc(C)c1S(=O)(=O)NCCc1ccc(S(N)(=O)=O)cc1	-4.8	.
Cc1ccc(-c2nnc(-c3ccc(Br)cc3)o2)o1	0.5	i
COc1ccccc1CNC(=O)CCCN1C(=O)COc2ccc(C)cc21	0.2	.
Cc1nc2sc(C(c3ccc(Br)cc3)N3CC(C)OC(C)C3)c(O)n2n1 (stereo not given)	1.6	i
COCCn1c(=O)[nH]c2cc(C(=O)NC(C)C)ccc2c1=O	-2.8	.
CC(C)Cc1nc(N2CCN(C(=O)c3ccco3)CC2)c(C#N)c2c1CCC2	-0.5	i

A second format for part of the listing above:
26S disassembly | VCAM-1 up | SMILES
3.0 | . | CCSc1nnc2c(n1)OC1(CCCC1)Nc1ccccc1-2
0.4 | i | O=C(O)CCCNS(=O)(=O)c1ccc(NCc2ccccc2)c(C(=O)O)c1
-1.0 | . | CCOC(=O)C1=C(C)Nc2nc(SCC)[nH]c(=O)c2C1c1ccncc1 (stereo not given)

The list goes on.
SMILES	26S disassembly	VCAM-1 up
Cc1c(C(=O)O)oc2ccc(S(=O)(=O)N3CC(C)CC(C)C3)cc12 (stereo not given)	-2.4	.
CCS(=O)(=O)CCn1c([N+](=O)[O-])cnc1C	-0.7	i
CCc1nc(SCC(=O)NCc2ccco2)c2c3c(sc2n1)CCCC3	0.6	i
CN1C(=O)CSc2ccc(NC(=O)N3CCC(N4CCCCC4)CC3)cc21	?	.
CCOC(=O)c1sc2ncn(CC(=O)NCC3CCCO3)c(=O)c2c1C (stereo not given)	0.1	.
O=C1C2CC=CCC2C(=O)N1c1ccc(Cc2ccncc2)cc1 (stereo not given)	0.1	i
O=c1ccnc(S/C=C/c2ccccc2)[nH]1	1.3	.
Cc1cc(/C=N/n2cnnc2)c(C)n1-c1ccc(Cl)cc1Cl	0.0	i
O=C(COc1ccc(S(=O)(=O)NC2CCCCC2)cc1Cl)NCC1CCCO1 (stereo not given)	-4.8	i
Cc1c(C(=O)O)sc2nc3n(c(=O)c12)CCC(C)CC3 (stereo not given)	-0.9	i
O=C(CN1CCN(CC(=O)Nc2ccc3c(c2)OCO3)CC1)Nc1ccc(F)cc1	-0.8	.
CC1=C(C(=O)Nc2ccccc2)C(c2ccccn2)n2nc(CCCO)nc2N1 (stereo not given)	0.2	i
O=C(Nc1ccc2oc(-c3ccncc3)nc2c1)c1cccs1	0.5	i
Cc1cc(C)c(C#N)c(SCS(=O)c2ccc(C(C)(C)C)cc2)n1 (stereo not given)	-0.8	.
S=c1[nH]nc(Cc2ccccc2)n1-c1ccccc1	-0.8	i

An excerpt from above in order of molar mass, highest first.
SMILES	26S disassembly	VCAM-1 up
Cc1c(C(=O)O)sc2nc3n(c(=O)c12)CCC(C)CC3 (stereo not given)	-0.9	i
CCS(=O)(=O)CCn1c([N+](=O)[O-])cnc1C	-0.7	i
O=c1ccnc(S/C=C/c2ccccc2)[nH]1	1.3	.

An excerpt of these results, comma-delimited:
molecule,26S disassembly,VCAM-1 up
Cc1c(C(=O)O)sc2nc3n(c(=O)c12)CCC(C)CC3 (stereo not given),-0.9,i
O=C(CN1CCN(CC(=O)Nc2ccc3c(c2)OCO3)CC1)Nc1ccc(F)cc1,-0.8,.
CC1=C(C(=O)Nc2ccccc2)C(c2ccccn2)n2nc(CCCO)nc2N1 (stereo not given),0.2,i

The list continues:
SMILES	26S disassembly	VCAM-1 up
COc1ccc(N2C(=O)C3C4C=CC(C4)C3C2=O)c(OC)c1 (stereo not given)	0.4	.
CC1(C)OC(=O)C(=CNc2ccccc2)C(=O)O1	-1.2	i
CCn1c(N)c(C(=O)NC)sc1=S	-0.6	.
CCOc1ccccc1C(=O)NCc1ccc2c(c1)OCO2	1.6	i
COC(=O)c1ccc2ncccc2c1	-1.9	i
Cc1cccn2c(=O)c3cc(C(=O)NCCCN4CCCC4=O)n(C)c3nc12	0.6	.
CCOc1ccccc1C1C(C(N)=O)=C(C)Nc2nc(CCCO)nn21 (stereo not given)	-1.7	.
COc1ccc(NC(=O)c2cc(CC(C)C)on2)cc1OC	-1.6	.
O=C(c1ccco1)N1CCN(c2cccc(Cl)c2)CC1	-0.6	i
Cn1cccc1Cc1nnc(SCC(=O)NCc2ccccc2)n1-c1ccc(F)cc1	-0.6	.
Cc1[nH]c2ccc(-c3nnc(SCC(=O)NCc4ccco4)n3Cc3ccccc3)cc2c1C	3.5	.
O=C(NCC1CCCO1)c1cc(-c2ccncc2)nc2ccc(S(=O)(=O)N3CCOCC3)cc12 (stereo not given)	-4.9	i
CCOc1ccc(S(=O)(=O)N2CCN(c3ccccc3)CC2)c2cccnc12	-0.9	.
CCOc1ccc(NC(=O)COC(=O)Cn2cnnn2)cc1OCC	-2.0	i
CCOC(=O)c1cccc(NC(=O)C2CCN(S(=O)(=O)c3cnc[nH]3)CC2)c1	1.1	.
CCOC(=O)N1CCC(NC(=O)CC(NS(=O)(=O)c2ccc(C)cc2)c2ccco2)CC1 (stereo not given)	-0.6	.
O=C(CSc1nnc2c3cc(F)ccc3nc(-c3ccccc3)n12)N1CCOCC1	-4.5	i
CCn1c(=O)cc(SCC(=O)Nc2ccccc2N2CCN(C)CC2)c2ccccc21	1.2	.
O=C(Nc1ccccc1C(=O)N1CCOCC1)C1COc2ccccc2O1 (stereo not given)	-6.6	i
COc1cccc(Oc2ccc(N)cn2)c1	-0.9	i
CNC(=O)N(C1=NCC(C)(C)S1)c1ccc(F)c(Cl)c1	-1.5	.
O=C(c1cccc(C(=O)N2CCN(c3ncccn3)CC2)c1)N1CCN(c2ncccn2)CC1	-1.2	.
CCCCN(C)CCCNC(=O)c1ccc2c(c1)NC(=O)C(N1CCOCC1)S2 (stereo not given)	2.2	.
Cc1cc(S(=O)(=O)N2CCN(c3ccc(F)cc3)CC2)c(C)s1	-3.6	.
COC(=O)c1ccc(NC(=O)C2CCCN2S(=O)(=O)c2ccc(C)cc2)cc1 (stereo not given)	1.7	.
COCCNc1nc(C(C)(C)C)nc2c1nnn2Cc1ccccc1Cl	-3.0	i
O=C1NC(Nc2ccccn2)(C(F)(F)F)C(=O)N1c1ccc(F)cc1 (stereo not given)	-1.8	i
CC(C)=CCCC(C)NC(=O)NC1CCCCC1 (stereo not given)	1.7	i
CCOC(=O)c1ccc(Nc2nnc(C(C)(C)C)c(=O)[nH]2)cc1	-1.5	.
CCOC(=O)c1cccc(NS(=O)(=O)c2c(C)[nH]c(=O)[nH]c2=O)c1	0.0	.
Cc1cc(C)c2c(=O)n(CC(=O)N3CCC(Cc4ccccc4)CC3)sc2n1	8.4	i
O=C(COC(=O)C1CC1)c1c[nH]c2ccccc12	-0.1	i
CC(=O)Nc1ccccc1OCc1nnc(-c2cccs2)o1	0.9	i
O=C(c1cc(-c2cccs2)on1)N1CCCc2ccccc21	0.3	.
O=C(NCc1ccc(Cl)cc1)c1cc(-c2cccs2)on1	0.1	.
CCC(=O)N1CCCc2cc(S(=O)(=O)NCc3cccs3)ccc21	2.3	.
COc1ccc(Cc2nnc(NC(=O)Cc3cccs3)s2)cc1	-5.2	i
CCSc1nnc(Cn2c(=O)sc3ccccc32)n1-c1ccccc1C	-3.3	.
CCCNc1nc2c(c(=O)n(C)c(=O)n2C)n1Cc1cccc(C)c1	0.6	i
COc1ccc(CCNC(=O)CCN2C(=O)C3CC=CCC3C2=O)cc1OC (stereo not given)	-0.2	i
O=c1c2cc(N3CCOCC3)ccc2[nH]c(=S)n1CCCN1CCCCCC1	0.1	.
Cc1ccccc1CN1C(=O)CSc2ccc(C(=O)N3CCOCC3)cc21	0.1	.
CC1(C(=O)NC2CCCC2)CCC(=O)N1Cc1ccccc1 (stereo not given)	-0.8	.
CC1CC(C)CN(C(=O)Cn2c(=O)n(CCCCC(=O)NC3CCCC3)c(=O)c3ccccc32)C1 (stereo not given)	1.3	.
COc1ccc(NC(=O)C23CCC(C)(C(=O)C2)C3(C)C)cc1 (stereo not given)	-2.1	i
CC(=O)N1CCc2cc(S(=O)(=O)NCCC(=O)NC3CCCc4ccccc43)ccc21 (stereo not given)	-4.5	i
O=C(CSc1nc2ccccc2c(=O)n1CCCC(=O)N1CCCC1)NCc1ccco1	-0.7	.
COc1ccc(NS(=O)(=O)Cc2ccccc2Cl)cn1	-0.2	.
COc1ccc(-n2c(Cc3cc(=O)[nH]c(=O)[nH]3)nnc2SCC(=O)Nc2ccccc2)cc1	0.2	.
COc1ccc2c(c1)CCc1c(C(=O)NCc3ccco3)noc1-2	-1.6	.
O=C(CCc1nc2ccccc2[nH]1)N1CCc2ccccc2C1	-1.0	.
Cc1cc(C(=O)CSc2nc3ccccc3[nH]2)c(C)n1C	1.0	i
CC(C)NC(=O)CN(Cc1ccccc1)S(=O)(=O)c1ccccc1	-0.1	.
O=C1C=C(NCc2ccco2)C2(CCCCC2)O1	1.5	i
CCn1c(C)csc1=NC(=O)c1ccccc1	0.8	.
CCCCS(=O)(=O)/C=C\C=C/S(=O)(=O)CCCC	-1.3	.
Cc1ccc(S(=O)(=O)C(C#N)c2nc3ccccc3nc2N2CCCCC2)cc1 (stereo not given)	2.6	i
CCCS(=O)(=O)N1CCCC(C(=O)NCCN(CC)c2ccccc2)C1 (stereo not given)	-0.5	.
O=C(CN1CCOc2ccccc21)NC1CCN(Cc2ccccc2)CC1	1.7	.
FC(F)Sc1ccc(Nc2ncnc3nc[nH]c23)cc1	-1.1	.
The list goes on:
SMILES	26S disassembly	VCAM-1 up
O=C(c1c[nH]c(=O)n(-c2ccccc2)c1=O)N1CCc2ccccc21	-2.4	.
CC(=O)NCCn1c(SCC(=O)NCCC2=CCCCC2)nc2ccccc2c1=O	0.6	.
CCCc1cc(C(=O)Nc2ccc(C(C)=O)cc2)no1	1.1	i
COC(=O)c1cc2occc2n1CC(=O)Nc1ccc(C)cc1C	2.2	.
Cn1nc(CC(=O)Nc2ccc3c(c2)OCCO3)c2ccccc2c1=O	-0.9	.
CCOC(=O)N1CCN(C(=O)C2CCCN(c3nc4ccc(OCC)cc4s3)C2)CC1 (stereo not given)	0.3	.
CN(C)CCNC(=O)c1ccc(CS(=O)(=O)c2c(Cl)cccc2Cl)o1	-0.2	.
Cc1cc(NC(=O)CSc2nc3c(c(-c4cccnc4)c2C#N)CCC3)no1	2.7	i
CS(=O)(=O)N(CC(=O)Nc1cccc(F)c1)Cc1ccccc1	1.3	i
COCc1[nH]nc2c1C(c1cc(OC)c(O)c(OC)c1)C(C#N)=C(N)O2 (stereo not given)	2.5	i
c1ccc(Cn2nnnc2CN2CCN(c3ncccn3)CC2)cc1	-0.8	i
CC1(C)CC(=O)CC(C2(O)C(=O)N(Cc3ccccc3)c3ccccc32)O1 (stereo not given)	-1.4	i
COc1ccccc1NS(=O)(=O)CC12CCC(CC1=O)C2(C)C (stereo not given)	-0.8	.
NC(=O)c1c(NC(=O)Cc2cccs2)sc2c1CCC2	1.5	i
CCn1cc(CNC(=O)CCc2ccc(OC)cc2)cn1	-0.1	.
CCCCc1c(C)c2ccc(OC)c(/C(C)=N\O)c2oc1=O	0.0	.
Cc1ccc(Cl)cc1NS(=O)(=O)c1c(C)[nH]c(=O)[nH]c1=O	-0.2	.
COc1ccc(NC(=O)CCn2nc(C)cc2C)cc1	0.0	.
CCOC(=O)N1CCN(C(=O)COc2cc(=O)n(C)c3ccccc23)CC1	-1.5	i
